Env fusion inh: blocks HIV Env-driven cell-cell fusion; 360,000 tested, 1.1% active; AID 651610; inhibition, % at 12.3 µM; HeLa-JRFL Env/CEM21 cell fusion, luciferase;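 active = mean replicate inhibition score of at least 50 and every replicate individually at or above 50; inconclusive = only one of the two criteria met; inactive = mean below 50 and not all replicates reaching 50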;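 note: 0% = plate neutral controls and 100% = maraviroc near 300 nM; one replicate is shown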
* hit, by the source's call; ? = inconclusive; [ ] = dose if it differs, or a comment. An excerpt; rates above refer to the full screens.

CN1C(=O)c2cc(NC(=O)c3ccccc3Cl)ccc2OC[C@H]2O[C@H](CC(=O)NCC(F)(F)F)CC[C@H]21
  Env fusion inh: -22.5[16.7 µM]
CCCCc1c(-c2ccccc2OC)ncn1CCc1ccccc1Cl
  Env fusion inh: -4.0
CCCCOCCCNC(=O)C[C@H]1C[C@@]2(C(=O)OC)C(=C[C@H](COCc3ccccc3)O[C@@H]2C)N(CCC2=CCCCC2)C1=O
  Env fusion inh: -28.8
COCC(=O)Nc1ccc2c(c1)C(=O)N(C)C[C@H](OC)[C@H](C)CN(Cc1ccccn1)[C@@H](C)CO2
  Env fusion inh: -6.1[16.7 µM]
CO[C@H]1CN(C)C(=O)c2ccc(NC(=O)C3CCCC3)cc2OC[C@H](C)N(C(=O)CC2CC2)C[C@@H]1C
  Env fusion inh: 7.3[16.7 µM]
CC(C)NC(=O)N(C)C[C@@H]1OCCCC[C@H](C)Oc2ccc(NC(=O)Cc3ccccc3)cc2C(=O)N([C@@H](C)CO)C[C@H]1C
  Env fusion inh: 15.9[16.7 µM]
O=C(NCCO)c1cccc(-c2cc(Nc3ccc(OC(F)(F)F)cc3)ncn2)c1
  Env fusion inh: 25.6
C[C@H]1CN([C@@H](C)CO)S(=O)(=O)c2ccc(-c3ccccc3)cc2O[C@@H]1CN(C)C(=O)c1ccc2c(c1)OCO2
  Env fusion inh: -0.7[16.7 µM]
C[C@@H]1CN([C@@H](C)CO)C(=O)Cc2cc(NS(=O)(=O)c3ccc(Cl)cc3)ccc2O[C@@H]1CN(C)Cc1ccc(-c2ccccc2)cc1
  Env fusion inh: 1.7[16.7 µM]
C[C@H]1CCCCO[C@@H](CN(C)C(=O)Nc2ccccc2)[C@@H](C)CN([C@@H](C)CO)C(=O)c2cc(NC(=O)Nc3ccccc3)ccc2O1
  Env fusion inh: -6.0[16.7 µM]
CO[C@@H]1CN(C)C(=O)c2cc(NC(=O)Nc3ccccc3)ccc2OC[C@H](C)N(C(=O)CC2CC2)C[C@@H]1C
  Env fusion inh: 10.8[16.7 µM]
C[C@@H]1ON(C)[C@H]2C[C@H]3c4[nH]c5c(-c6ccc(C(F)(F)F)cc6)cccc5c4CCN3C(=O)[C@@H]12
  Env fusion inh: -15.4
C[C@@H](NC(=O)C[C@@H]1CC[C@H](NC(=O)c2cccnc2)[C@@H](CO)O1)c1ccccc1
  Env fusion inh: -1.3[16.7 µM]
CCN1C(=O)N[C@@H]2C[C@H](C(=O)N3CCCC3)[C@H](C)[C@H](c3ccccc3)C[C@@H]21
  Env fusion inh: ?
CCCNC(=O)c1cc2c(c(-c3cccc(-c4cccc(F)c4)c3)n1)[C@H](CCO)N([S@@](=O)C(C)(C)C)C2
  Env fusion inh: 5.3[16.7 µM]
Cc1noc(C)c1NC(=O)Nc1ccc2c(c1)C(=O)N([C@H](C)CO)C[C@@H](C)[C@@H](CN(C)Cc1ccc(C(=O)O)cc1)OCCCC[C@@H](C)O2
  Env fusion inh: -7.4[16.7 µM]
C[C@@H](NC(=O)C[C@@H]1C[C@@H]2c3cc(NC(=O)c4cccnc4)ccc3O[C@@H]2[C@H](CO)O1)c1ccccc1
  Env fusion inh: -2.2[16.7 µM]
Cc1ccc(S(=O)(=O)Nc2ccc3c(c2)C(=O)N([C@H](C)CO)C[C@H](C)[C@@H](CN(C)Cc2ccc(Oc4ccccc4)cc2)O3)cc1
  Env fusion inh: 19.7[16.7 µM]
CN1C(=O)c2cc(NC(=O)C3CCOCC3)ccc2OC[C@H]2O[C@@H](CC(=O)NCCc3ccncc3)CC[C@H]21
  Env fusion inh: -11.7[16.7 µM]
CCCN1CCCCC(NC(=O)c2ccccc2C)C1=O (stereo unspecified)
  Env fusion inh: -19.7
Cc1ccc(C(=O)NC2CCCCN(C)C2=O)cc1 (stereo unspecified)
  Env fusion inh: 8.2
C[C@H]1[C@H](c2ccccc2)Oc2ccc(Cl)cc2S(=O)(=O)N1C[C@@H]1CCCN1C(=O)OC(C)(C)C
  Env fusion inh: 17.2
COc1ccccc1Cc1c(-c2ccccc2)nc2c3ccccc3ccn12
  Env fusion inh: -18.2
C[C@@H]1CN([C@@H](C)CO)C(=O)c2cccc(NS(C)(=O)=O)c2O[C@H]1CN(C)S(=O)(=O)c1ccc(F)cc1
  Env fusion inh: -15.4[16.7 µM]
CO[C@H]1CN(C)C(=O)c2cc(NC(=O)C3CC3)ccc2OC[C@H](C)N(C(=O)c2cccnc2)C[C@H]1C
  Env fusion inh: 30.3[16.7 µM]

CC(C)NC(=O)Nc1ccc2c(c1)C(=O)N([C@@H](C)CO)C[C@H](C)[C@@H](CN(C)S(=O)(=O)c1cccs1)O2
  Env fusion inh: 19.2[16.7 µM]
C[C@@H]1CN([C@H](C)CO)C(=O)c2cc(NS(=O)(=O)c3cn(C)cn3)ccc2O[C@H]1CN(C)C(=O)Nc1ccc(F)cc1
  Env fusion inh: -4.6[16.7 µM]
CC(C)NC(=O)Nc1ccc2c(c1)C(=O)N([C@H](C)CO)C[C@@H](C)[C@H](CN(C)C(=O)C1CCCCC1)OCCCC[C@H](C)O2
  Env fusion inh: 3.1[16.7 µM]
CN1C(=O)c2cc(NS(=O)(=O)c3ccccc3F)ccc2OC[C@H]2O[C@@H](CC(=O)NC3Cc4ccccc4C3)CC[C@H]21
  Env fusion inh: 2.7[16.7 µM]
C[C@H](CO)N1C[C@H](C)[C@H](CN(C)S(=O)(=O)c2cn(C)cn2)Oc2ccc(NC(=O)c3ccncc3)cc2CC1=O
  Env fusion inh: 27.6[16.7 µM]
C[C@H]1CN([C@@H](C)CO)C(=O)Cc2cc(NC(=O)Cc3cn(C)c4ccccc34)ccc2O[C@H]1CN(C)C(=O)Nc1ccc(F)cc1
  Env fusion inh: -61.5[16.7 µM]
CO[C@H]1CN(C)C(=O)c2ccc(NC(=O)C3CC3)cc2OC[C@@H](C)N(Cc2ccncc2)C[C@@H]1C
  Env fusion inh: 10.1[16.7 µM]
C[C@H]1CN([C@@H](C)CO)S(=O)(=O)c2ccc(C3=CCCC3)cc2O[C@@H]1CN(C)C(=O)c1cnccn1
  Env fusion inh: -12.8[16.7 µM]
Nc1[nH]c(C(=O)c2ccccc2)c(-c2cccc(C(F)(F)F)c2)c1C(=O)NCCc1c[nH]c2ccccc12
  Env fusion inh: -40.3
COc1ccc(NC(=O)Nc2ccc3c(c2)[C@@H]2C[C@@H](CC(=O)N4CCN(C)CC4)O[C@H](CO)[C@@H]2O3)cc1
  Env fusion inh: -5.7[16.7 µM]
O=C(C[C@@H]1CC[C@H]2[C@@H](COC[C@H](O)CN2S(=O)(=O)c2ccccc2)O1)NCc1ccc(-c2ccccc2)cc1
  Env fusion inh: -4.9[16.7 µM]
CN(C)CC(=O)Nc1ccc2c(c1)[C@H]1C[C@H](CC(=O)NCc3ccc(-c4ccccc4)cc3)O[C@H](CO)[C@H]1O2
  Env fusion inh: -0.6[16.7 µM]
C[C@H](CO)N1C[C@H](C)[C@@H](CN(C)Cc2cccc3c2OCCCO3)OCc2ccccc2-c2ccccc2C1=O
  Env fusion inh: -26.1[16.7 µM]
COc1ccc(C2CC(=O)C(c3ccc(Cl)c(Cl)c3)=CN2Cc2ccccc2)cc1 (stereo unspecified)
  Env fusion inh: -7.6
COC(=O)C1=C(C)N(C)C(=NCc2ccc3c(c2)OCO3)NC1c1ccccc1 (stereo unspecified)
  Env fusion inh: -45.0
COC(=O)C[C@@H]1C[C@@H]2c3cc(N)ccc3O[C@@H]2[C@@H](CO)O1
  Env fusion inh: -55.2[16.7 µM]
COC(=O)C1=C(C)N(C)C(=NCC2CC2)NC1c1cccc(C(F)(F)F)c1 (stereo unspecified)
  Env fusion inh: ?
COC(=O)C1=C(C)N(C)C(=NCc2cccc(C(F)(F)F)c2)NC1c1cccc(Cl)c1 (stereo unspecified)
  Env fusion inh: 2.5
Cc1ccc(Cc2c(-c3cccc(Br)c3)nc3ccc(C)cn23)cc1
  Env fusion inh: ?
C/C=C/c1cnc2c(c1)C(=O)N([C@@H](C)CO)C[C@@H](C)[C@@H](CN(C)C(=O)C1CCC1)O2
  Env fusion inh: -11.7[16.7 µM]
COc1cccc(S(=O)(=O)N2C[C@H](O)COC[C@@H]3O[C@H](CC(=O)Nc4ccccc4)CC[C@H]32)c1
  Env fusion inh: 3.6[16.7 µM]
CC(C)NC(=O)N(C)C[C@H]1OCCCC[C@@H](C)Oc2ccc(NC(=O)c3ccccc3)cc2C(=O)N([C@H](C)CO)C[C@@H]1C
  Env fusion inh: -2.2[16.7 µM]
C[C@@H]1ON(C)[C@H]2C[C@H]3c4[nH]c5cccc(-c6cccc(F)c6)c5c4CCN3C(=O)[C@@H]12
  Env fusion inh: 9.5
CCS(=O)(=O)N1CC2(CN(Cc3ccc(OC)cc3)[C@@H](CO)c3c2c2ccc(OC)cc2n3C)C1
  Env fusion inh: -0.3[16.7 µM]
C[C@@H]1CN([C@H](C)CO)C(=O)CCCn2nncc2CO[C@@H]1CN(C)Cc1ccc(Oc2ccccc2)cc1
  Env fusion inh: 10.6[16.7 µM]

Compounds from the list above containing an NH in an aromatic ring:
C[C@@H]1ON(C)[C@H]2C[C@H]3c4[nH]c5c(-c6ccc(C(F)(F)F)cc6)cccc5c4CCN3C(=O)[C@@H]12
  Env fusion inh: -15.4
Nc1[nH]c(C(=O)c2ccccc2)c(-c2cccc(C(F)(F)F)c2)c1C(=O)NCCc1c[nH]c2ccccc12
  Env fusion inh: -40.3
C[C@@H]1ON(C)[C@H]2C[C@H]3c4[nH]c5cccc(-c6cccc(F)c6)c5c4CCN3C(=O)[C@@H]12
  Env fusion inh: 9.5

Continuation.
C[C@@H]1CN([C@@H](C)CO)S(=O)(=O)c2ccc(-c3ccncc3)cc2O[C@@H]1CN(C)C(=O)C1CCC1
  Env fusion inh: 1.9[16.7 µM]
C/C=C/c1ccc2c(c1)O[C@H](CN(C)C(=O)C1CCC1)[C@@H](C)CN([C@H](C)CO)S2(=O)=O
  Env fusion inh: 9.9[16.7 µM]
CC(C)[C@H]1COCc2cn(nn2)CC[C@H](Cc2ccccc2)C(=O)N1
  Env fusion inh: -3.6[16.7 µM]
O=C(C[C@@H]1CC[C@@H]2[C@H](COC[C@@H](O)CN2Cc2ccccc2)O1)N1CCOCC1
  Env fusion inh: -6.7[16.7 µM]
COc1ccc2c3c(n(C)c2c1)[C@@H](CO)N(C(=O)c1ccc(F)cc1)CC31CCN(CC2CCOCC2)CC1
  Env fusion inh: -7.0[16.7 µM]
C[C@H](CO)N1C[C@H](C)[C@H](CN(C)S(=O)(=O)c2ccccc2)Oc2ccc(NS(C)(=O)=O)cc2C1=O
  Env fusion inh: -5.7[16.7 µM]
C#CCN(C[C@H]1[C@H](OC(=O)Nc2c(C)noc2C)[C@H](OC(=O)Nc2c(C)noc2C)CN(C(=O)OC(C)C)N1C(=O)OC(C)C)S(=O)(=O)c1ccc(C)cc1
  Env fusion inh: -23.4
CCCC(=O)Nc1ccc2c(c1)C(=O)N(C)[C@@H]1CC[C@H](CC(=O)NCCN3CCCCC3)O[C@H]1CO2
  Env fusion inh: 1.2[16.7 µM]
CO[C@@H](C(=O)N(C)C[C@H]1OCc2ccccc2-c2c(n(C)c3ccccc23)C(=O)N([C@H](C)CO)C[C@@H]1C)c1ccccc1
  Env fusion inh: 34.4[16.7 µM]
CO[C@@H]1CN(C)C(=O)c2cc(NC(=O)C3CCCC3)ccc2OC[C@H](C)N(C(C)=O)C[C@@H]1C
  Env fusion inh: -7.3[16.7 µM]
C[C@@H]1CN([C@@H](C)CO)C(=O)Cc2cc(NC(=O)Cc3cn(C)c4ccccc34)ccc2O[C@H]1CN(C)C(=O)Nc1ccc(F)cc1
  Env fusion inh: 28.5[16.7 µM]
COc1ccc2c3c([nH]c2c1)[C@@H](CO)N(S(=O)(=O)c1ccccc1)CC31CCN(C)CC1
  Env fusion inh: 4.1[16.7 µM]
CN(C)C(=O)[C@@H]1[C@@H](CO)[C@@H]2Cn3c(ccc(-c4ccncc4)c3=O)[C@H]1N2CC1CC1
  Env fusion inh: -0.6[16.7 µM]
CNC[C@@H]1Oc2ccc(NC(=O)CCN3CCOCC3)cc2C(=O)N([C@H](C)CO)C[C@H]1C
  Env fusion inh: -17.7[16.7 µM]
C[C@@H]1CN([C@@H](C)CO)C(=O)c2c(c3ccccc3n2C)-c2ccccc2CO[C@@H]1CN(C)S(=O)(=O)CC(F)(F)F
  Env fusion inh: -10.3[16.7 µM]
COc1ccc(-c2ccc3c(c2)[C@@H]2[C@@H](CCN2C(=O)C2CCCC2)[C@H](CO)N3C)cc1
  Env fusion inh: 27.7[16.7 µM]
CS(=O)(=O)Nc1ccc2c(c1)[C@H]1C[C@H](CC(=O)NCc3ccc(Cl)cc3)O[C@H](CO)[C@H]1O2
  Env fusion inh: -3.6[16.7 µM]
COC(=O)C1=C(C)N(Cc2ccc(Cl)cc2)C(=S)NC1c1ccccc1 (stereo unspecified)
  Env fusion inh: 31.3
COCC(=O)Nc1ccc2c(c1)OC[C@@H](C)N(C(=O)C1CCCC1)C[C@H](C)[C@@H](OC)CN(C)C2=O
  Env fusion inh: -13.2[16.7 µM]
COCC(=O)Nc1ccc2c(c1)OC[C@@H](C)N(CC1CC1)C[C@H](C)[C@@H](OC)CN(C)C2=O
  Env fusion inh: 7.9[16.7 µM]
COc1ccccc1CN(C)C[C@@H]1OCc2cn(nn2)CCCC(=O)N([C@@H](C)CO)C[C@@H]1C
  Env fusion inh: -20.5[16.7 µM]
COc1ccccc1CN1[C@@H]2c3cccc(=O)n3C[C@@H]2[C@@H](CO)[C@@H]1C(=O)NCCc1ccncc1
  Env fusion inh: 6.8[16.7 µM]
C[C@@H]1CCCCO[C@@H](CN(C)CC2CC2)[C@@H](C)CN([C@H](C)CO)C(=O)c2cc(NC(=O)CCC(F)(F)F)ccc2O1
  Env fusion inh: -5.9[16.7 µM]
C[C@@H]1CN([C@H](C)CO)C(=O)c2ccccc2-c2ccccc2CO[C@@H]1CN(C)C(=O)Nc1ccccc1
  Env fusion inh: -28.4
C[C@@H]1CN([C@@H](C)CO)C(=O)c2cc(NC(=O)Cn3cnnn3)ccc2O[C@H]1CN(C)S(=O)(=O)c1ccccc1
  Env fusion inh: -27.8[16.7 µM]
CN(C)Cc1cn(CC[C@@H]2CC[C@@H](NC(=O)Cc3cccnc3)[C@@H](CO)O2)nn1
  Env fusion inh: -37.6[16.7 µM]
COC(=O)Cc1nnn2c1CC(OC)c1cc(Br)ccc1-2 (stereo unspecified)
  Env fusion inh: -7.5

Assay outcomes deposited in PubChem BioAssay by Broad Institute.
